# Compound activity from PubChem.
# Biofilm kill mix = clotrimazole potentiators killing C. albicans biofilm, primary screen, 4-compound mixtures; AID 1242, 2008; C. albicans biofilm persisters + clotrimazole, fluorescence viability; primary screen in compound mixtures of four per well; 0.02% of 120,000 active; inhibition, % at 7.6 µM;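 active = inhibition above 30.3% in the primary screen of four-compound pools, then above 30% when the compound was retested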;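 note: compounds exposed to preformed 24 h biofilms for 48 h; the number belongs to the whole pool; some results filed as inactive read as strong as hits; inactives centre near 12; 0% = biofilm with clotrimazole alone and 100% = kill control; retested singly at about 60 µM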
#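 Test system: C. albicans CAF4-2 wild-type biofilms; buffer or medium: RPMI/MOPS medium, pH 7.0; schedule: 24 h biofilm formation, then 48 h compound exposure, 37 °C; detection: Alamar Blue fluorescence; measure: percent inhibition of biofilm viability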
# Numbers without * were called inactive. Only part of the results is shown; count on the stated rates, not on these rows.
SMILES,Biofilm kill mix
Cc1nn2c(Nc3ccc(F)cc3)c3c(nc2c1-c1ccccc1)CCC3,12
Cc1nn(Cc2ccccc2)c(Cl)c1C(=O)NCCc1ccccc1,23
O=C(NCc1nc2ccccc2[nH]1)C1=C[C@H](c2coc3ccccc3c2=O)C[C@H](OCc2ccc(CO)cc2)O1,19
CN(Cc1ccccn1)Cc1nc(COc2ccccc2)no1,19
CCCn1cnc2c(=S)nc(N)[nH]c21,4
COc1ccccc1NNC(=O)C(O)(c1ccccc1OC)c1ccccc1OC,8
CCN1C(=O)CC(C(=O)OC)=C1C,12
CCn1cc(C(=O)NCCCN2CCCCCC2)c(=O)c2cc(S(=O)(=O)N3CCc4ccccc4C3)ccc21,12
CC1CCCC(NC(=O)COC(=O)c2cccc(NS(=O)(=O)/C=C/c3ccccc3)c2)C1C (configuration not stated),11
O=C(NCC1CCCO1)c1ccc(COc2ccc(Cl)cc2)cc1 (configuration not stated),-4
CN(C)C(CNC(=S)Nc1cccc(Cl)c1)c1cccnc1 (configuration not stated),7
COc1ccc(NC(=O)Cc2ccc(Cl)c(Cl)c2)cn1,5
COC(=O)c1cc(-n2cccc2)ccc1N1CCOCC1,17
CN(C)c1nc(N)c2ncc(=S)[nH]c2n1,15
COCCN(Cc1cc2cc3c(cc2nc1Cl)OCO3)C(=O)c1ccc(C)cc1,11
CN1CCC(=O)N([C@H](CSc2ccc(Br)cc2)Cc2ccccc2)CC1,24
COC(CNC(=O)Cc1c(C)nc2c(-c3ccccc3)c(C)nn2c1C)OC,32
CC(NC(=O)C(Cc1ccccc1)n1cccc1)c1ccccc1 (configuration not stated),23
COc1ccc(N=C2SC(C(N)=O)CC(=O)N2Cc2ccc3c(c2)OCO3)cc1 (configuration not stated),24
C=CCNCCCOc1ccc(Cl)cc1Br,16
N#C/C(=C/c1ccc(O)c([N+](=O)[O-])c1)C(=O)Nc1ccccc1,16
COCCNC(=O)COc1cccc2c1OC(C)(C)C2,9
CCOC(=O)NC(=O)c1cn(C(CC)CO)c(=O)[nH]c1=O (configuration not stated),10
O=C(N=c1ccn(-c2nc3ccccc3nc2NS(=O)(=O)c2ccccc2)cc1)c1cccs1,8
CCOC(=O)C1(C(F)(F)F)N=C(c2cccnc2)OC(N2CCCCC2)=N1 (configuration not stated),6

# Reprinted from the part before: 4 compounds; new compounds follow.
SMILES,Biofilm kill mix
COCCNC(=O)COc1cccc2c1OC(C)(C)C2,9
CCOC(=O)NC(=O)c1cn(C(CC)CO)c(=O)[nH]c1=O (configuration not stated),10
O=C(N=c1ccn(-c2nc3ccccc3nc2NS(=O)(=O)c2ccccc2)cc1)c1cccs1,8
CCOC(=O)C1(C(F)(F)F)N=C(c2cccnc2)OC(N2CCCCC2)=N1 (configuration not stated),6
COc1ccccc1N1CCN(C(=S)Nc2ccc(S(=O)(=O)N3CCOCC3)cc2)CC1,-5
COc1cccc(CNc2ccc([N+](=O)[O-])cc2C)c1,9
CC(C)Nc1nnc(SCc2cc(=O)n3ccsc3n2)s1,6
CC(C)CN(C(=O)c1cc2ccccc2o1)c1c(N)n(CC(C)C)c(=O)[nH]c1=O,18
CCN(CC)C(=O)CC(c1ccc2c(c1)OCO2)c1c(OC)cc(OC)c2ccc(=O)oc12 (configuration not stated),24
CCOC(=O)CC(NCc1ccc(OC)c(OCC)c1)c1ccc(C)cc1 (configuration not stated),11
O=C(Nc1ccccc1)N1CCCC(CNS(=O)(=O)Cc2ccccc2)C1 (configuration not stated),20
CCOc1ccc(CC2NCCc3cc(OCC)c(OCC)cc32)cc1OCC (configuration not stated),13
COc1cc(/C=C/C(=O)c2ccc(C)c([N+](=O)[O-])c2)cc(OC)c1O,6
Cc1cc(C)c(Nc2ncccc2C(=O)O)c(C)c1,3
Cn1c(=O)[nH]c(=O)c2c1nc1n2CCS1,18
COc1ccc(N(C(C)C(=O)N/N=C/c2cccnc2)S(C)(=O)=O)cc1 (configuration not stated),9
O=C(Nc1ccc2c(c1)OCCO2)Nc1ccc2c(c1)OCO2,14
COc1ccccc1/C=C/C1=NC(=C\C=C/c2ccccc2)/C(=O)O1,19
Cc1noc(C)c1CSc1ccc2ccccc2n1,16
COc1cccc(-c2cc3nc4c(c(NCC(C)(C)CN(C)C)n3n2)CCCC4)c1,6
CC1CCCN(c2ccc(N)cc2C(N)=O)C1 (configuration not stated),-9
NC(=O)[C@@H]1CCCN1Cc1nc(-c2ccccc2)no1,20
Cc1cc(C(=O)NP(=O)(N2CC(C)OC(C)C2)N2CC(C)OC(C)C2)c(C)n1C1CC1 (configuration not stated),3
CCOc1ccccc1NC(=O)c1cc(C(=O)c2cc(OC)ccc2O)coc1=N,9
Cc1ccc(C(=O)NN2C(=O)C3C4C=CC(C5CC45)C3C2=O)cc1 (configuration not stated),14
CC1CN(Cc2nc3ccccc3c(=O)[nH]2)CC(C)O1 (configuration not stated),-1
COc1ccc(C(CC(=O)N2CCCCC2)c2c(O)cc(OC)cc2OC)cc1 (configuration not stated),8
Cc1ccc(CSCc2ccc(C(=O)NCCCN3CCOCC3)o2)cc1,23
CCNC(=S)NNC(=O)c1ccccn1,21

# Part of the list above, as tab-separated lines.
SMILES	Biofilm kill mix
CC(C)CN(C(=O)c1cc2ccccc2o1)c1c(N)n(CC(C)C)c(=O)[nH]c1=O	18
CCN(CC)C(=O)CC(c1ccc2c(c1)OCO2)c1c(OC)cc(OC)c2ccc(=O)oc12 (configuration not stated)	24
CCOC(=O)CC(NCc1ccc(OC)c(OCC)c1)c1ccc(C)cc1 (configuration not stated)	11
O=C(Nc1ccccc1)N1CCCC(CNS(=O)(=O)Cc2ccccc2)C1 (configuration not stated)	20
CCOc1ccc(CC2NCCc3cc(OCC)c(OCC)cc32)cc1OCC (configuration not stated)	13

# The listing picks up, starting 2 compounds before the break.
SMILES,Biofilm kill mix
Cc1ccc(CSCc2ccc(C(=O)NCCCN3CCOCC3)o2)cc1,23
CCNC(=S)NNC(=O)c1ccccn1,21
CC(=O)NS(=O)(=O)c1ccc(NC(=O)/C=C/c2cn(-c3ccccc3)nc2-c2ccccc2)cc1,7
CCCOCn1cc(F)c(=O)[nH]c1=O,13
C=CCN(c1ccccc1C(=O)O)S(=O)(=O)c1ccc(NC(=O)OC)cc1,12
CC1=C(C(=O)OC(C)C)C(c2cn(-c3ccccc3)nc2-c2cccs2)NC(=O)N1 (configuration not stated),10
O=C(N/N=C/c1ccc(Br)s1)c1c[nH]c2ccccc12,11
CCOC(=O)c1cc(C)nc(N2CCCCC2)c1C#N,12
COc1ccc(NC(=O)CCCSc2nc(-c3ccco3)cc(C(F)(F)F)n2)cc1OC,11
COc1ccc(C2CC(=O)C=C(NCc3ccc4c(c3)OCO4)C2)cc1 (configuration not stated),25
FC(F)(F)c1nnc2ccc(NCc3cccnc3)nn12,23
Cc1cnc(C(=O)OCC(=O)NC2CCCCCC2)cn1,15
N#C/C(=C\c1cccc(Cl)c1)C(=O)c1ccccc1,27
O=C(NCCOc1ccccc1)C(=O)c1c[nH]c2ccccc12,23
Cc1cc(C)nc(S/C=C/C(=O)c2ccccc2)n1,21
Cc1cc(C)c(NC(=S)N(CCN(C)C)Cc2cccs2)c(C)c1,13
Fc1ccc(CN2CCCN(C(=S)Nc3ccc(F)cc3)CC2)cc1,12
O=C(C1=C[C@@H](c2csc3ccccc23)C[C@@H](OCc2ccc(CO)cc2)O1)N1CCN(Cc2ccccc2)CC1,14
COc1ccc(OCC(O)CNC(=O)c2c(-c3ccccc3)noc2C)cc1 (configuration not stated),18
Cc1ccc(CSc2nnc(SCC(=O)N/N=C/c3c(C)nn(-c4ccccc4)c3C)s2)cc1,5
N#Cc1sc2nc(N3CCCCC3)c3c(c2c1N)CCCC3,13
CCCCCNC(=O)C1CC(=O)OC12CCCCC2 (configuration not stated),15
COc1ccc(N(CC(=O)NCc2ccccc2)S(C)(=O)=O)cc1,11
COc1ccc([N+](=O)[O-])cc1NC(=O)COC(=O)c1ccccc1C(=O)c1ccccc1,9
Cc1ccc(N=C2NC(=O)/C(=C/c3cccnc3)S2)cc1C,8
CCOc1ccc(CSC(=N)N)cc1,11
CCC(=O)Nc1nnc(-c2cccs2)s1,3
# The list goes on.
SMILES,Biofilm kill mix
CCc1cccc(Nc2c([N+](=O)[O-])cc(C(=O)N3CC(=O)Nc4ccccc43)cc2[N+](=O)[O-])c1,21
O=C(NNC(=O)c1cc(-c2ccccc2)n(-c2ccccc2)n1)c1cccc([N+](=O)[O-])c1,12
CC1=NN(C(=O)c2ccco2)C(O)(c2ccccc2)C1 (configuration not stated),12
CC(=O)Oc1ccc(N(C(C)=O)S(=O)(=O)c2ccc(C)c([N+](=O)[O-])c2)cc1,2
CCOC(=O)c1c(C)oc(C)c(C(=O)OCC)c1=O,18
COc1ccc(C(NC(=O)C(C)C)c2ccc3cccnc3c2O)cc1 (configuration not stated),16
COc1ccc(Cn2cc(C(=O)O)c(=O)c3ccccc32)cc1,13
COc1ccc(/C=C/C(=O)C23CC4CC(CC(C4)C2)C3)cc1CN1CCOCC1,5
CC(C)CCn1c(O)c(N=NC(=O)Cn2ccc(C(F)(F)F)n2)c2ccccc21,7
Cc1ccccc1-c1nc(CN(C)C(C)c2ccon2)c(C)o1 (configuration not stated),4
C[C@@H]1CC=C[C@H]2[C@H]1C(=O)N(Cc1ccccc1)[C@H]2c1ccc(F)c(-c2ccc(N(C)C)cc2)c1,13
Cc1ccc(Nc2nc(N)nc(CSC(=S)N3CCOCC3)n2)c(C)c1,9
CCOc1ccc(/C(C)=N/N2C(=O)C(CC(=O)Nc3ccc(OC)cc3[N+](=O)[O-])SC2=Nc2cccc(C)c2C)cc1 (configuration not stated),16
CCNc1nc(NCC)nc(Oc2ccc(OCc3ccccc3)nn2)n1,10
CN1CC2(C)OC(=O)C(Cl)=C2CC1c1ccccc1 (configuration not stated),22
COc1ccc(CCc2nnc(CCC(=O)N(C)Cc3ccncc3C)o2)cc1,14
CNS(=O)(=O)c1ccc(NC(=S)Nc2ccc3c(c2)OCO3)cc1,12
Cc1ccc(N2CC(O)=C(c3nc4ccccc4c(=O)[nH]3)C2=N)cc1C,-2
COc1ccc(C(O)c2nc3ccccc3n2C(C)C)cc1 (configuration not stated),16
C/C(=N\Nc1ccc([N+](=O)[O-])cc1[N+](=O)[O-])C(C)C(C)C (configuration not stated),11
CN1CCN(CC(=O)Nc2cccc([N+](=O)[O-])c2)CC1,6
CCOc1cc(NC(=O)c2cnccn2)c(OCC)cc1NC(=O)c1cccc(F)c1,-5
CCNc1nc(NCC)nc(N(n2cnnc2)S(=O)(=O)c2ccc(C)cc2)n1,-13
O=C(Nc1ccc(F)cc1)c1cc(Cl)sc1Cl,20
O=C(O)CC(NCc1ccco1)C(=O)OCCCl (configuration not stated),12

# Gathered by group, the entries above with a cyano group (four)
SMILES,Biofilm kill mix
N#C/C(=C/c1ccc(O)c([N+](=O)[O-])c1)C(=O)Nc1ccccc1,16
CCOC(=O)c1cc(C)nc(N2CCCCC2)c1C#N,12
N#C/C(=C\c1cccc(Cl)c1)C(=O)c1ccccc1,27
N#Cc1sc2nc(N3CCCCC3)c3c(c2c1N)CCCC3,13

# Next part
SMILES,Biofilm kill mix
COc1ccc(C2=NN(CCC(=O)NCc3cccs3)C(=O)CC2)cc1,21
OC(COc1ccc2cc(Br)ccc2c1)CN1CCOCC1 (configuration not stated),2
CC1=C(C(=O)OCCNC(=O)c2ccccc2O)C(c2ccccc2[N+](=O)[O-])C(C(=O)OCC2CCCO2)=C(C)N1 (configuration not stated),26
CCOC(=O)C1(CCOC)CCN(C(=O)c2sccc2C)CC1,15
O=C1CC(N2CCC(c3nc4ccccc4o3)CC2)C(=O)N1c1ccc(F)cc1 (configuration not stated),-35
CC1=CC2=NC(=O)/C(=C/c3coc4ccccc4c3=O)C(=N)N2O1,9
N#Cc1ccc(NCCc2ccccn2)c([N+](=O)[O-])c1,13
O=c1[nH]nc(-c2cccs2)c2ccccc12,2
Cc1cccc(OCC(=O)NCC(=O)N/N=C/c2ccc([N+](=O)[O-])cc2)c1,23
CCOC(=O)c1c(NC(=O)C2CC2)sc(C)c1CC,12
CCOC(=O)C1=C(C)NC2=C(C(=O)CC(c3cccs3)C2)C1c1cccs1 (configuration not stated),20
COc1cc(OC)cc(C(=O)Oc2ccc(/C=N/Nc3nc4ccccc4s3)cc2OC)c1,14
Cc1ccc(NC(=O)NC2CCN(S(=O)(=O)c3ccc(F)cc3)CC2)cc1,7
COc1ccc(-c2[nH]ncc2/C=N/NC(=O)c2ccc(Br)cc2)c(OC)c1,3
O=C(NCC1CCCO1)c1cc(-c2ccccc2)nc2ccccc12 (configuration not stated),4
NC(=O)c1c(NC(=O)C2CCCO2)sc2c1CCCC2 (configuration not stated),6
CC(=O)Nc1ccccc1C(=O)N1CCN(c2cccc(C)c2C)CC1,13
NCCCC[C@@H](C(=O)N1CCNCC1)n1cc(CCC(=O)O)nn1,11
CCOc1ccc(-c2nnn(CC(=O)NCc3ccco3)n2)cc1OCC,15
CS(=O)(=O)N(CC(=O)NCCSCc1ccccc1)c1ccccc1,0
CC1CC(C)CN(c2oc(Cc3ccccc3)nc2C#N)C1 (configuration not stated),6
O=C(Nc1ccccc1)OCc1cnc(Cl)s1,23
Cn1c(N/N=C2\CCCc3ccccc32)nc2c1c(=O)n(Cc1ccccc1)c(=O)n2C,11
Cn1c(CC(=O)c2ccc(Br)cc2)[n+](C)c2ccccc21,10
CCCNC(=O)OCCC12CC3CC(CC(C3)C1)C2,17
O=[n+]1cc(-c2ccc(Br)cc2)n([O-])c2c1CCC2,7
CCOC(=O)CCCNC(=O)COC(=O)c1cccc(F)c1,14
O=C(OCCCN=C1NS(=O)(=O)c2ccccc21)C1CC(=O)N(c2ccc(Cl)cc2)C1 (configuration not stated),16
